High-throughput results from PubChem.
KCNQ2 pot = potentiators of rat KCNQ2 potassium channel. B-score at 10 µM. AID 2239, 2010. hit rate 0.54% among 310,000. Potassium voltage-gated channel subfamily KQT member 2 (Rattus norvegicus), O88943. CHO-K1 KCNQ2, FluxOR thallium flux fluorescence; active compounds read high;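 active = fluorescence ratio B-score at least 3 SD of library B-scores, with initial fluorescence B-score within 3 SD, cut at about 5.3 in these data; same plate scores as AID 2156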;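 note: B-score of peak minus minimum over baseline fluorescence ratio after K+ and Tl+ stimulus; positive B-score means potentiation of KCNQ2 with more thallium influx and brighter signal; only the inactives scoring about 0 or higher are listed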
Target sequence (O88943 whole entry, looked up): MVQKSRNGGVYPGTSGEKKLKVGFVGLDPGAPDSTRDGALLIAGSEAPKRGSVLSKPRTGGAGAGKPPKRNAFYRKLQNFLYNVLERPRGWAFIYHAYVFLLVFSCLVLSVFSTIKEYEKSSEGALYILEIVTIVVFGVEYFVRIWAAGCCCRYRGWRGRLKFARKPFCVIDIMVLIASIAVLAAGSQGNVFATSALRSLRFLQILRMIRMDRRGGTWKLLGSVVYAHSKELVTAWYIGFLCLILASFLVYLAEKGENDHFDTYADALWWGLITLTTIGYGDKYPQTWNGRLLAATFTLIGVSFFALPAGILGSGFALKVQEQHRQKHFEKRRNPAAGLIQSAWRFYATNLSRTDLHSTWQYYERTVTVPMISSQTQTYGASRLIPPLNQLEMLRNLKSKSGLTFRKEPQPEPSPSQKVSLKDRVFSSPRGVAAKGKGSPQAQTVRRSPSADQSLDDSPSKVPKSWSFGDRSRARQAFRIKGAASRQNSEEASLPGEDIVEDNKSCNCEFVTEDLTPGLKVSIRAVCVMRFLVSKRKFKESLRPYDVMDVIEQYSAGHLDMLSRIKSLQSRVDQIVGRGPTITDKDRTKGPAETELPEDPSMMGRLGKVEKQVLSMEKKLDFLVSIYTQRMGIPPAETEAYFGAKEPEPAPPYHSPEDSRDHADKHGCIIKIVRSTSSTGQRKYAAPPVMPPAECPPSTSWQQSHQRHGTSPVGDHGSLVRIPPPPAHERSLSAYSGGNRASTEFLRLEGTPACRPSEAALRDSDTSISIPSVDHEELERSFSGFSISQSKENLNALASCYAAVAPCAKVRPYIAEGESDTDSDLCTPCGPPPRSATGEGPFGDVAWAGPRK
KCNQ2 pot baseline = further read-out of KCNQ2 pot, marked with its call; B-score; compound at 10 µM; measured here: initial fluorescence intensity artifact check;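 brightness before thallium and not channel activity; 0 = typical well and far values either way flag optical interference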
Starred values were filed as active, the others as inactive. Only part of the results is shown. The share of hits here may be higher or lower than overall.

canonical_smiles	KCNQ2 pot	KCNQ2 pot baseline
CCOc1ncccc1C(=O)NCc1ccc(OC)c(OC)c1	1.1	-2.5
CN(/N=C/c1cccc(Br)c1)C1=NS(=O)(=O)c2ccccc21	0.71	-1.6
COc1cccc(Nc2ccccc2C(=O)O)c1	0.38	-0.36
COCCNc1nc(N2CCCCC2)c2cnn(C)c2n1	0.67	0.68
O=C1CC2(CCN(C(=O)COc3ccccc3F)CC2)Oc2ccccc21	0.01	1.4
CC(C)(Oc1ccc(Cl)cc1)C(=O)Nc1ccncc1	0.47	-0.1
CC1CN(CCOc2ccc(Cl)c(Cl)c2)CC(C)O1 (centres undefined)	1	0.34
CCCc1nc(SCc2cccnc2)c2c(=O)n(C)c(=O)n(C)c2n1	0.99	1.5
COc1ccc(-c2nnc(SC(C)C#N)o2)cc1 (centres undefined)	1.2	-0.01
CC(C)CC(NC(=O)C1CCC(C)CC1)C(=O)Nc1ccc2c(c1)OCCO2 (centres undefined)	1.5	-0.31
CC(C)Cc1cc(C(=O)Nc2cccc(O)c2)no1	2.6	-0.3
Clc1ccc(-c2cc(COc3ccc4ccccc4c3)no2)cc1	0.61	0.05

More results.
canonical_smiles	KCNQ2 pot	KCNQ2 pot baseline
CCCc1cc(=O)oc2cc(OCc3cc(OC)c(OC)c(OC)c3)c(Cl)cc12	0.07	-0.05
CCN(CC)c1ccc(NS(=O)(=O)c2ccc3c(c2)oc(=O)n3C)c(C)c1	1.7	-0.04
Fc1ccc(Nc2nc3ccccc3s2)cc1	0.42	0.9
Cc1ccccc1C(=O)NC1CCN(CC(=O)Nc2nccs2)CC1	0.83	-1.5
Cc1cc(CN(C)C(=O)c2ccc3nc(Cc4ccccc4F)oc3c2)n[nH]1	2	1.1
Cc1c(Cl)cccc1NC(=O)CCCCCN1C(=O)CCC1=O	0.87	-0.29
Cc1cc(NC(=O)CSc2ncnc3sccc23)no1	1.6	-0.74
CC(C)(C)c1cc(/C=C2\NC(=O)NC2=O)cc(C(C)(C)C)c1O	1	0.26
COc1cc(OC)cc(C(=O)NNC(=O)Cc2ccc(OC)c(S(=O)(=O)N3CCOCC3)c2)c1	0.03	-1
CCOc1ccc2nc(NCCNC(=O)Nc3ccccc3)c(C#N)cc2c1	0.85	0.43
CNC(=O)CSc1nnc(-c2ccccc2)n1C	0.58	-0.19
COc1ccc(N(CC(=O)NC2CC3CCC2C3)S(=O)(=O)c2ccccc2)cc1OC (centres undefined)	1	0.72

The results go on.
canonical_smiles	KCNQ2 pot	KCNQ2 pot baseline
COc1cc(-n2nnnc2SCC(=O)N2CCN(c3ccc(F)cc3)CC2)c(OC)cc1Cl	0.78	0.02
COc1cc(Cl)ccc1OCc1cc(C(=O)N(C)CCc2c(C)n[nH]c2C)no1	0.35	0.74
COc1ccc(S(=O)(=O)Nc2nc3ccccc3nc2Nc2cccc(C(=O)O)c2)cc1	0.95	-0.34
CNC(=S)N/N=C/c1c(C)cccc1Cl	1.7	-1.1
Cc1ccc(C(C2=C(O)CC(C)(C)CC2=O)C2C(=O)CC(C)(C)CC2=O)s1 (centres undefined)	5	-0.53
Cc1c(NC(=O)/C(=C\c2ccccc2)NC(=O)c2ccccc2)c(=O)n(-c2ccccc2)n1C	0.93	1.1
COCCN1CCc2[nH]c(=S)[nH]c(=O)c2C1	0.86	1.1
Cc1nnc(NC(=O)CN2CCN(Cc3ccccc3)CC2)s1	1.4	-0.66
Oc1ccc(C[C@H]2CNCCN2CC2CCCCC2)cc1	1.2	-1.7
Cc1ccc(S(=O)(=O)N2CCCC2CNC(=O)C(=O)Nc2ccc(F)cc2F)cc1 (centres undefined)	1.3	0.55
CC(C)(C)c1cc[n+](CC(=O)Nc2cc(C(F)(F)F)ccc2N2CCOCC2)cc1	0.01	1.4
COC(=O)c1ccc(C2NC(=O)NC(C)=C2C(=O)N(C)C)cc1 (centres undefined)	0.92	-0.59

The list goes on.
canonical_smiles	KCNQ2 pot	KCNQ2 pot baseline
O=C1CN(C(=O)c2ccccc2F)C(c2ccc(F)cc2)c2cc(F)ccc2N1 (centres undefined)	1.3	0.56
S=c1nc(-c2ccccc2)n(-c2ccccc2)[nH]1	0.07	-0.32
COC(=O)C1=C(C)N(C)C(C)=C(C(=O)OC)C1c1ccc(Cl)cc1	0.71	-0.52
Cc1ccnc(NC(=O)c2ccc(Cl)s2)c1	2.2	0.8
O=C(Cc1cccs1)NCc1cccc(Br)c1	0.18	-1.9
CCNc1nc(NCC)nc(N/N=C(\C)c2ccc(OC)cc2)n1	0.31	1.2
CC(C)NC(=O)c1n[nH]c(=O)c2ccccc12	1.2	-0.43
O=C(CSc1nc2c(cnn2-c2ccccc2)c(=O)[nH]1)N1CCOCC1	1.2	0.16
O=C(/C=C/c1cccc(Cl)c1)Nc1ncccn1	0.62	0.88
COc1ccc(/C=C/C(=O)N2CCCC2)cc1OC	0.38	0.42
Cc1cnc(C(=O)OCC(=O)Nc2cccc(Cl)c2)cn1	0.69	1.9
CC1CCN(C(=O)CN(CCc2ccccc2)S(C)(=O)=O)CC1	1.6	-1.4

Among those listed so far, 2 have a cyano group.
canonical_smiles	KCNQ2 pot	KCNQ2 pot baseline
COc1ccc(-c2nnc(SC(C)C#N)o2)cc1 (centres undefined)	1.2	-0.01
CCOc1ccc2nc(NCCNC(=O)Nc3ccccc3)c(C#N)cc2c1	0.85	0.43

Exported with each value named: entries from further up.
O=C(Cc1cccs1)NCc1cccc(Br)c1
  KCNQ2 pot: 0.18
  KCNQ2 pot baseline: -1.9
CCNc1nc(NCC)nc(N/N=C(\C)c2ccc(OC)cc2)n1
  KCNQ2 pot: 0.31
  KCNQ2 pot baseline: 1.2
CC(C)NC(=O)c1n[nH]c(=O)c2ccccc12
  KCNQ2 pot: 1.2
  KCNQ2 pot baseline: -0.43
O=C(CSc1nc2c(cnn2-c2ccccc2)c(=O)[nH]1)N1CCOCC1
  KCNQ2 pot: 1.2
  KCNQ2 pot baseline: 0.16

Further results follow.
canonical_smiles	KCNQ2 pot	KCNQ2 pot baseline
O=C(CN(Cc1ccccc1Cl)C(=O)c1csnn1)NCc1ccc(F)cc1	0.8	0.8
O=C(COc1cccnc1[N+](=O)[O-])N1CCc2ccccc2C1	0.42	1.3
COc1cccc(NC(=O)C2CCCN(S(=O)(=O)c3cccc4nonc34)C2)c1 (centres undefined)	0.67	-0.39
OC1(c2ccccc2)CNCCc2ccccc21 (centres undefined)	0.01	0.83
CC(=O)Nc1ccc(NC(=O)C(C)Sc2nc3nc(C)cc(C)n3n2)cc1 (centres undefined)	1.9	-0.95
COc1ccc(COC(=O)C2=C(C)NC(=O)NC2c2ccccc2OC(C)C)cc1 (centres undefined)	1.6	1.5
Cc1nn(Cc2ccccc2)c(C)c1NC(=O)CSc1nc(-c2ccccc2)nc2c1cnn2-c1ccccc1	0.91	-0.23
CCCNC(=O)c1onc(CSc2ccc(F)c(F)c2)c1C(=O)NCCC	0.45	-1.2
Cc1ccc(NC2CCCN(C(=O)CCCN3CCCCC3=O)C2)cc1C (centres undefined)	0.8	0.05
CC(=O)N1c2ccc(S(=O)(=O)N3CCC(C(=O)NCc4ccc(F)cc4)CC3)cc2CC1C (centres undefined)	0.84	-0.38
COc1cc(C(=O)OCC(=O)Nc2ccc(C)cc2)cc(OC)c1OC	0.27	-0.2
Cc1c(CCO)c(=O)n(-c2ccccc2)n1S(=O)(=O)c1ccc([N+](=O)[O-])cc1	0.68	-0.54

(list continues)
Second line of a record – KCNQ2 pot, KCNQ2 pot baseline
CCN1CCCC1CN(Cc1cc2ccc(C)cc2[nH]c1=O)C(=S)Nc1ccc(OC)cc1OC (centres undefined)
→ 1.3, -0.73
C/C(=N\OCC(=O)OCC(=O)NC(=O)c1ccccc1)c1ccc2c(c1)OCO2
→ 1.2, 0.67
COc1cc(C(=O)OCCc2c(C)nc3nc[nH]n3c2=O)cc(OC)c1OC
→ 1.2, -0.07
CCc1ccc(Cn2nnc(C(=O)Nc3ccc(OC)cc3OC)c2N)cc1
→ 0.07, -0.06
O=C(NCC(=O)N(c1ccccc1)C(C(=O)NCC1CCCO1)c1ccccc1)c1cccs1 (centres undefined)
→ 1.4, -0.34
O=c1c2sccc2nc(SCc2cc(=O)n3cc(Cl)ccc3n2)n1Cc1ccccn1
→ 0.03, 0
CCc1[nH]nc2c1C(Cc1ccccc1)C(C#N)=C(N)O2 (centres undefined)
→ 0.89, -2.4
Cc1nn(C(=O)c2ccco2)c(C)c1Sc1ccc(Cl)cc1
→ 0.42, 1.1
O=C(Nc1ccc(-c2nc3cccnc3s2)cc1)c1ccc(Cl)nc1
→ 0.88, 0.62
CCn1ncc([N+](=O)[O-])c1C(=O)n1nc(C)cc1C
→ 0.56, 0.1
COc1ccccc1/C=C/C(=O)Nc1ccc(N2CCOCC2)cc1
→ 0.89, -1.3
Cc1onc(-c2ccccc2Cl)c1C(=O)Nc1cccc(S(=O)(=O)NC2=NCCC2)c1
→ 0.12, 0.18
O=C(NNC(=O)C1CCN(Cc2ccc(Cl)c(Cl)c2)CC1)c1cccs1
→ 1.9, 0.81
COc1ccc(C2NC(=O)c3sc(=S)n(-c4ccccc4)c3N2)cc1 (centres undefined)
→ 0.68, -0.21
COCCCNC(=O)c1ccc(-c2nc3ccccc3nc2-c2ccccc2)cc1
→ 0.38, 0.6

Additional structures follow:
Second line of a record – KCNQ2 pot, KCNQ2 pot baseline
O=C1CC(N2CCN(c3ccc(C(=O)c4ccc(F)cc4)cc3)CC2)C(=O)N1 (centres undefined)
→ 1.4, -1.7
Cc1ccc2nc3sc(C(=O)N4CCOCC4)c(N)c3cc2c1
→ 0.37, 0.18
O=C(NC1CCCC1)c1ccc2c(c1)S(=O)(=O)c1ccccc1C2=O
→ 0.7, -0.01
CCOC(=O)c1c(C)nc2cc(C)ccn12
→ 0.56, -0.29
COCCN(C(=O)COC(=O)CCC(=O)c1cccs1)c1c(N)n(Cc2ccccc2)c(=O)[nH]c1=O
→ 1.2, 0.61
CCN1C(=O)c2cccc3c(S(=O)(=O)NCCCN4CCOCC4)ccc1c23
→ 0.04, 0.78
CCN1CCN(c2nc3c(c(=O)n(C)c(=O)n3C)n2Cc2cccc3ccccc23)CC1
→ 2.6, -1.6
CCOc1ccccc1-n1nnnc1SCC(=O)NC(=O)NCc1ccco1
→ 1.1, -0.67
COc1ccccc1NC(=O)Nc1nc(C(C)(C)C)cs1
→ 0.58, -0.01
CCC(=O)N(Cc1cc2cc(C)c(C)cc2[nH]c1=O)C1CCCCC1
→ 0.43, -1.3
COc1ccc2oc(=O)c(C(=O)NCc3ccco3)cc2c1
→ 0.09, -1.6
COc1cc(OC)c(C(=O)O/N=C(\N)c2ccc(C)cc2)cc1OC
→ 0.06, 0.07
CC(C)=CCN1CCN(Cc2cc(C(C)C)n[nH]2)CC1CCO (centres undefined)
→ 0.02, 0.7
N#Cc1c(-c2ccccc2)nc(-c2ccccc2)[nH]c1=O
→ 0.55, -0.01
CC1(C)CC(N2CCOCC2)=CC(=[N+]2CCOCC2)C1
→ 1.4, 0.75

Next part:
Second line of a record – KCNQ2 pot, KCNQ2 pot baseline
CC(NC(=O)c1ccccc1Br)c1nnc(SCC(=O)NC2=NCCS2)n1C (centres undefined)
→ 0.46, -1.9
CC(C)(C)OC(=O)N1CCC[C@H]1c1nnc(SCC(=O)Nc2cccc(Cl)c2)o1
→ 0.68, -0.17
O=C(OCc1nnc(-c2ccccc2)o1)c1ccc2c(c1)C(=O)N(CCc1ccccc1)C2=O
→ 1.4, -0.55
CCOC(=O)c1sc(C)nc1C1CCN(C(=O)OCC)CC1
→ 0.12, -0.13
Cc1ccc(S(=O)(=O)Nc2ccc(S(=O)(=O)N3CCOCC3)cc2)cc1[N+](=O)[O-]
→ 1.5, -1.2
Cc1nnc(SCC2=C(C(=O)O)N3C(=O)C(NC(=O)Cn4nc(C(F)F)c(Cl)c4C)C3SC2)s1 (centres undefined)
→ 2.4, 0.55
Cc1cc2nc(CCN(Cc3cccnc3)C(=S)Nc3ccc(F)cc3)[nH]c2cc1C
→ 1.3, 0.84
O=c1[nH]c2cc(Cl)ccc2n(CCNc2ncc(C(F)(F)F)cc2Cl)c1=O
→ 0.73, -0.43
Cc1cc(C)n(C(=O)C2CCCN2S(=O)(=O)c2ccc(Cl)cc2)n1 (centres undefined)
→ 0.42, 0.56
Cc1ccc(C(=O)NNC(=O)Cn2nnc3ccccc32)cc1
→ 1.1, -0.34
Cc1nn(-c2ccc(Cl)cc2)c2[nH]c(=O)c(CNCc3ccc4c(c3)OCO4)cc12
→ 5.2, 0.54
O=C(Nc1nc2ccccc2n1CCOc1ccccc1)c1ccco1
→ 0.02, -0.33
CC(C)c1ccc(-c2nnc(N)s2)cc1
→ 0.4, -0.03
NC(=O)c1ccccc1OCc1nc2ccccc2s1
→ 0.42, 0.1
CS(=O)(=O)c1ccc2nc(NC(=O)CN3CCN(Cc4ccccc4)CC3)sc2c1
→ 0.56, 0.16

Later entries.
Second line of a record – KCNQ2 pot, KCNQ2 pot baseline
O=C(Nc1ccccc1)c1ccc(=O)n(Cc2cccc(Cl)c2)c1
→ 0.04, 2
COc1ccc(-c2c3c(=O)n(C)c(=O)n(C)c3cn2-c2ccc(O)cc2)cc1
→ 0.02, -0.73
Fc1cccc(NC(=S)NCCCN2CCOCC2)c1
→ 1.6, -1.1
c1cc2c(cc1CN1CCN(C3CCCCCC3)CC1)OCO2
→ 0.35, -0.19
O=Cc1ccc(N2N=C(c3ccccc3)CC2c2ccccc2)cc1 (centres undefined)
→ 0.54, 0.57
C=CCNCCCCOc1ccc(C)cc1[N+](=O)[O-]
→ 0.22, -0.8
COC(=O)c1c(NC(=O)/C=C/C(=O)O)sc(Cc2ccccc2)c1C
→ 1.2, -0.02
CCc1ccc(OCc2nnc(SCc3ccc(C(=O)O)cc3)o2)cc1
→ 2, 1.2
C[C@@H](NC(=O)[C@@H]1Cc2ccccc2CN1C(=O)OC(C)(C)C)C(=O)NCc1ccco1
→ 2.5, -1
